# Screening data as filed in PubChem BioAssay.
# GIV Gai3 FP – inhibitors of GIV peptide binding to Galpha-i3, primary screen, biochemical, fluorescence polarization, FITC-GIV GBA peptide, rat Galphai3 | percent of control (FP), % (concentration not given with the values) | 210,000 tested, 0.42% active | 90 min; stronger effect = lower value; scaled: aluminum fluoride 0%, vehicle 100%;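 active = replicate mean at 85% of control or lower, very high polarization wells dropped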;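 also: wells of about 15 µL received 100 nL stock; the first replicate is given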
# Target sequence (P08753 whole entry, looked up): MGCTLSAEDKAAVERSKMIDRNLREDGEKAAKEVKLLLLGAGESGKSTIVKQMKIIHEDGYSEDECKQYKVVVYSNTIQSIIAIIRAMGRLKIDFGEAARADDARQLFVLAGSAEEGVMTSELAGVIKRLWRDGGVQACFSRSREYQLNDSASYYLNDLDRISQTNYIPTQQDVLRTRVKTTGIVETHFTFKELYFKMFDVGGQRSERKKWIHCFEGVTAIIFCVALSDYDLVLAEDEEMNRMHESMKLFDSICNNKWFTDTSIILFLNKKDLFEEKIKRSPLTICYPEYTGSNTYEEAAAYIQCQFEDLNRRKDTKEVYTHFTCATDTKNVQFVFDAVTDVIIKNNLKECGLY
# Sa growth 42C – S. aureus growth inhibition at 42 and 30 °C, primary screen, LtaS inhibitor project, RN4220, two temperatures | 170,000 tested, 0.53% active | OD600, 20 h, 42 °C; stronger effect = lower value | relative growth, % (no concentration beside the values);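 active = growth at 42 °C up to 50% and 20 or more points under that at 30 °C, or under 10% at both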;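 also: 300 nL library stock went into each well; scaled to the means of positive and negative controls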
# HCMV NEC inh – inhibitors of HCMV UL50-UL53 interaction, biochemical, HTRF; HCMV UL50-UL53 nuclear egress complex (human cytomegalovirus); normalized percent inhibition; inhibition, % (test concentration not listed); 190,000 tested, 0.15% active; AID 1918969, 2023;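 active = both replicates at 50% or more, plus weaker picks with an unusually low signal ratio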;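 also: stock transfer was 100 nL into about 20 µL; 0% = negative control wells and 100% = wells with untagged competitor protein; inactives centre near -12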
# Sa growth 42C second temp – second read-out of Sa growth 42C, no call of its own (marks repeat the call); relative growth, %; measured here: growth at 30 °C;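 optical density after 20 h as mean of two plates; 100% = untreated growth and lower means inhibition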
# The depositor's hits bear a star; / = no result given; & = joins results of further samples.
# Every second line gives: GIV Gai3 FP	Sa growth 42C	Sa growth 42C second temp	HCMV NEC inh
- Cc1ccc(Cc2nc3nc4c(c(Nc5cc(C)ccc5C)n3n2)CCCC4)cc1
→ 103	/	/	-13
- O=C(c1cc(C2CC2)on1)N1CCN(c2ccccc2)CC1
→ 98	99	77	/
- COc1ccc(OC)c(N=C2SCCN2C(=O)CC2CCCC2)c1
→ /	85	65	13
- Cc1nc(N2CCN(c3ccccn3)CC2)c2c(C)c(C(=O)N3CCN(Cc4ccc5c(c4)OCO5)CC3)sc2n1
→ 100	/	/	-7
- CCN(CC)c1ccc2c(N3CCCCC3)cc(=O)oc2c1
→ /	2.1*	9.7*	-2
- O=C1CC(c2ccccc2)n2nc(NC(=O)c3ccco3)nc2N1 (configuration not stated)
→ 105	96	79	/
- CC(C)c1ccc(NC(=S)N=C(N)N)cc1
→ 105	65	35	-23
- COc1cc(C(=S)N(C)C)ccc1O
→ 106	103	96	-26
- O=C(Cn1cnc2ccccc21)N/N=C/c1sc(N2CCCCC2)nc1-c1cccs1
→ /	102	83	-8
- C=CCn1c(Cc2nnc(SCC(=O)c3ccccc3)n2CC=C)nnc1SCC(=O)c1ccccc1
→ 101	73	55	-18
- O=C(Cn1nc(Cc2cccnc2)c2ccccc2c1=O)NCCCN1CCCC1=O
→ 106	100	97	0
- O=C(c1ccc2c(c1)OCO2)N1CCc2ccccc2C1
→ 99	105	97	-17
- COC(=O)c1c(NC(C)=O)c2c(C)c(C)sc2n1CC(=O)NCCc1ccccc1
→ 104	/	/	-12
- O=C(CN1c2ccc(F)cc2-c2ccccc2S1(=O)=O)NCCSc1ccccc1
→ 104	/	/	-28
- Cc1cccc(NC(=O)CCc2c(C)[nH]n(-c3nc(C)cs3)c2=O)c1
→ 102	/	/	-14
- Cc1cc2nc(SCC(=O)C(C)(C)C)[nH]c2cc1C
→ /	101	87	8
- CN(C)CCCn1c(-c2ccc(Cl)cc2)csc1=Nc1ccccc1
→ 103	104	94	/
- COCCNC(=O)c1ccc2c(c1)N=C(C)c1cc(C)ccc1S2
→ 104	112	89	-6
- CC1CCCCN1C(=O)Nc1noc2c1COc1ccccc1-2 (configuration not stated)
→ 100	87	85	-15
- CCOC(=O)c1ccc(N2CCN(c3cc(C)ccc3C)CC2)c(NC(=O)Nc2ccccc2)c1
→ 106	97	86	/
- COC(=O)c1c(O)c2ccccc2oc1=O
→ 99	102	97	5
- CCc1ccc(OCC(=O)C(C#N)c2nc3ccccc3[nH]2)cc1 (configuration not stated)
→ /	95	97	-3
- CCOc1ccccc1NC(=O)C1CCN(S(=O)(=O)c2ccccc2)CC1
→ 106	112	88	-22
- C1=Cn2nc(/C=C/c3c[nH]c4ccccc34)nc2-c2ccccc2O1
→ 98	/	/	-17
- COc1ccc(C2C(C(=O)Nc3ccc(F)cc3F)c3ccccc3C(=O)N2c2ccc(OC)cc2)cc1 (configuration not stated)
→ 101	/	/	-21
- Oc1ccccc1/C=N/c1ncn[nH]1
→ /	104&87	80&95	-10&10
- Cc1ccc(/C=C/C(=O)OCc2cc(=O)n3cc(Br)ccc3n2)o1
→ /	82	87	-61
- O=C(Cn1cc2c(n1)CCCC2)NC1CCCC1
→ 102	103	88	/
- Cn1c(-c2ccccc2)c(C(=O)CSc2nnc3n2CCCCC3)c2ccccc21
→ /	38	-1	0
- CCOC(=O)c1noc2ncn(CC(=O)Nc3ccc(F)cc3F)c(=O)c12
→ 104	/	/	-5
- COc1ccc(CCNc2ccccc2C(=O)O)cc1OC
→ /	95	103	-4
- Cn1c(=O)c2c(nc(NCc3ccc4c(c3)OCO4)n2Cc2c(Cl)cccc2Cl)n(C)c1=O
→ 99	/	/	-29
- Cn1c(=O)c2[nH]c(N3CCCC3)nc2n(C)c1=O
→ 104	88	85	-18
- COc1ccc2ncc(S(=O)(=O)c3ccccc3)c(N3CCCCC3C)c2c1 (configuration not stated)
→ 97	/	/	-4
- O=C(CCn1[nH]c(=O)c2ccccc2c1=O)OC1CCCCC1
→ 97	90	90	-26
- CC(=O)c1cccc(NC(=O)c2sc(-n3nc(C)c(CCC(C)C)c3C)nc2C)c1
→ 99	92	91	0
- COc1ccccc1OCC(=O)Nc1cccc(Cl)c1Cl
→ /	102	91	-29
- O=C(O)/C=C/C(=O)Nc1ccc(N2CCOCC2)nc1N1CCOCC1
→ 96	101	95	-16
- O=C(NCCCN1CCN(c2cccc(Cl)c2)CC1)Nc1ccccc1C(F)(F)F
→ 107	98	74	12
- Cc1cc(O)c(CN2CCN(c3ccc(F)cc3)CC2)c2oc(=O)cc(C)c12
→ 100	95	85	-9
- COc1cccc2c1OC1(C)CC2N(C(=O)c2ccc(Br)o2)C(=S)N1c1ccc(C)cc1 (configuration not stated)
→ 128	79	92	-36
- O=C(O)CN1c2cccc3cccc(c23)S1(=O)=O
→ /	100	97	-55
- Cc1nn(-c2cc(N3CCCCC3)ccc2N)c(=O)c2ccccc12
→ 96	57	81	/
- CN1CCN(/N=c2\cc(-c3ccccc3)oc3ccccc23)CC1
→ /	122	90	-58
- CCC(C)n1c(=N)c(C(=O)NC2CCCCC2)cc2c(=O)n3cc(C)ccc3nc21 (configuration not stated)
→ 110	94	104	-66
- N#CC1=C2SCN(C3CCCCC3)CN2C(=O)CC1c1c(F)cccc1Cl (configuration not stated)
→ 108	79	77	-34
- O=C(c1nn2c(C(F)(F)F)cc(-c3ccco3)nc2c1Cl)N1CCN(Cc2ccccc2)CC1
→ 100	/	/	-21
- S=c1nc(-c2ccco2)[nH][nH]1
→ 103	55	63	-21
- Cc1nc(C(F)(F)F)ccc1-c1nnc(SC(=O)c2ccc(Cl)cc2)o1
→ 109	95	61	/
- COCCNc1nc(-c2ccc(OC)cc2)nc2ccccc12
→ 108	67	49	-1

# Next section:
# Every second line gives: GIV Gai3 FP	Sa growth 42C	Sa growth 42C second temp	HCMV NEC inh
- NNC(=O)c1ccc2c(c1)OCO2
→ /	99	85	-18
- FC(F)(F)c1ccc(Sc2nnc3ccccn23)nc1
→ /	95	95	-6
- CCOC(=O)c1c(S(=O)(=O)NCC(=O)NCc2cccc(C)c2)c(C)n(C)c1C
→ 103	102	84	/
- Cc1cccc(C(O)(CCN2CCCCC2)c2ccccc2)c1 (configuration not stated)
→ 103	87	74	-16
- COc1ccc2c(c1)c(C(=O)ON1C(=O)CCC1=O)c(C)n2C1CC1
→ 104	93	85	-30
- COC(=O)c1ccc2c(=O)n(CCCCCC(=O)NC(C)C)c(=O)[nH]c2c1
→ 105	102	92	/
- CSc1cccc(NC(=O)C2CCCN(S(=O)(=O)c3ccc4c(c3)CCCN4C(C)=O)C2)c1 (configuration not stated)
→ 99	96	92	/
- CCc1ccc(-c2nn(-c3ccccc3)cc2/C=N\O)cc1
→ /	105	89	-12
- Cc1ccc(NC(=O)c2sc3ncnc(N(C)C4CCCCC4)c3c2C)cc1
→ 107	120	98	/
- COc1ccc(-n2cc(-c3ccccc3)c3c(SC(C)C(C)=O)ncnc32)cc1 (configuration not stated)
→ 103	104	87	-11

# Shown field by field: part of the list above
canonical_smiles: CSc1cccc(NC(=O)C2CCCN(S(=O)(=O)c3ccc4c(c3)CCCN4C(C)=O)C2)c1 (configuration not stated)
- GIV Gai3 FP = 99
- Sa growth 42C = 96
- Sa growth 42C second temp = 92
- HCMV NEC inh = /

canonical_smiles: CCc1ccc(-c2nn(-c3ccccc3)cc2/C=N\O)cc1
- GIV Gai3 FP = /
- Sa growth 42C = 105
- Sa growth 42C second temp = 89
- HCMV NEC inh = -12

canonical_smiles: Cc1ccc(NC(=O)c2sc3ncnc(N(C)C4CCCCC4)c3c2C)cc1
- GIV Gai3 FP = 107
- Sa growth 42C = 120
- Sa growth 42C second temp = 98
- HCMV NEC inh = /

# Further entries
# Every second line gives: GIV Gai3 FP	Sa growth 42C	Sa growth 42C second temp	HCMV NEC inh
- Cn1c(=O)c2c(SCC(=O)NCCc3ccccc3)nc(C3CC3)nc2n(C)c1=O
→ 100	99	94	-18
- Cc1ccc(Cl)cc1N1CCN(C(=O)c2cc(S(=O)(=O)N3CCCCC3)cn2C)CC1
→ 98	102	91	/
- Clc1ccc(CN2CCc3nc(Nc4ccc5c(c4)OCCO5)ncc3C2)cc1
→ 100	114	95	/
- Cc1noc(C)c1S(=O)(=O)NCCc1csc2nc(-c3ccc(Cl)cc3)nn12
→ 95	149	82	/
- O=C(Nc1ccc(Br)cc1F)N1CCN(Cc2nc3cccnc3n2-c2ccccc2)CC1
→ 105	/	/	-1
- CCCCCn1c(=O)c2sccc2n2c(CCC(=O)NCCc3c[nH]c4ccccc34)nnc12
→ 99	/	/	3
- COc1ccc(CNC(=O)c2cc3c(C)nccc3[nH]c2=O)cc1
→ 101	88	85	-28
- CCCNC(=O)c1ccc(Cn2c(SCC(=O)Nc3cccc(OC)c3)nc3ccccc3c2=O)cc1
→ 104	/	/	-16
- NC(=O)CSc1ccc(-c2ccncc2)nn1
→ 102	101	90	/
- COc1ccc(C2C(C(=O)N3CCN(c4ccccc4OC)CC3)CCC(=O)N2c2ccc(OC)cc2)cc1 (configuration not stated)
→ 102&101	101	88	-27&-17
- CC(Oc1ccccc1)C(=O)Nc1nnc2n1CCS2 (configuration not stated)
→ 97	82	92	/
- CCOC(=O)c1nc(C)sc1-c1ccnn1S(=O)(=O)c1ccccc1C(F)(F)F
→ 106	112	91	-24
- CCC(=O)NC(=S)Nc1ccc(NC(=O)c2ccc(Br)o2)cc1
→ 106	109	107	-6
- O=c1[nH]cc(S(=O)(=O)N2CCCCCC2)c(=O)[nH]1
→ 104&103	103	101	1&-10
- O=C(CCNS(=O)(=O)c1cccc2nsnc12)NC1CCCC1
→ 95	93	83	/
- N#CC(Cc1ccccc1OC(F)F)c1nc2ccccc2[nH]1 (configuration not stated)
→ /	102	90	-28
- Cc1sc2c(c1C)c(=O)nc1n2C(c2ccccc2)C=CS1 (configuration not stated)
→ /	108	91	-20
- O=C(N/N=C/c1ccccc1)N/N=C/c1ccccc1
→ 98	104	119	-9
- O=C(Nc1ccc2c(c1)OCO2)C1CCCN(c2nc3cccnc3s2)C1 (configuration not stated)
→ 108	/	/	-22
- CCCOc1ccccc1C(=O)N1CCCCC1CCN1CCCCC1 (configuration not stated)
→ 101	92	87	-38
- Cc1ccc(S(=O)(=O)Nc2cc(C)on2)cc1
→ 96	101	79	/
- CC(NC(=O)c1ccc(Cn2c(=O)c3cccn3c3cccnc32)cc1)c1ccccc1 (configuration not stated)
→ 111	84	83	/
- COc1cccc(-c2nc(S(=O)(=O)c3ccc(Cl)cc3)c(NCc3ccccc3)o2)c1
→ 110	119	106	25
- COC(=O)Cn1cnc2c1c(=O)[nH]c(=O)n2C
→ 105	76	106	7
- COc1ccc2c(Sc3ccc(C)cc3)c(C(=O)NCCc3ccc(OC)c(OC)c3)[nH]c2c1
→ 88	90	69	/
- Cc1nn2c(=O)cc(COC(=O)c3ccco3)nc2s1
→ 100	88	92	/
- Cc1cc(C)n2nc(C(=O)Nc3sc4c(c3C(N)=O)CCC4)nc2n1
→ /	76	97	-54
- Cc1nc(/N=C(\N)NC(=O)Nc2ccc(Cl)cc2)sc1Br
→ 102	77	80	-28
- CCCCCCOc1ccc(C(=O)Nc2ccccn2)cc1
→ 100	103	94	-1
- COc1cc(CN2CCCC(C(=O)N3CCCCCC3)C2)ccc1OCc1ccccc1 (configuration not stated)
→ 103	107	92	/
- O=S(=O)(Nc1ccc(-c2cn3ccsc3n2)cc1)c1ccccc1
→ /	93	97	11
- Cc1cc2c(c(Sc3ccccc3)n1)C(=O)OC2
→ /	108	85	-18
- CC(C)c1nc(-c2ccc(-c3ccon3)s2)no1
→ 103	105	77	-15
- O=C(O)C1(Cc2nc3ccccc3[nH]2)CCCC1
→ /	117	95	20
- CN(Cc1ccccc1)C(=O)c1ccc(Br)cc1
→ 98	109	104	-10
- O=C1c2cccnc2C(=O)C1c1ccnc2ccccc12 (configuration not stated)
→ 101	77	33	-8
- CCOc1ccc(OCCCn2cnc3ccccc3c2=O)cc1
→ 107	107	88	-9
- CCOC(=O)CSc1ccc2nnc(CCNS(=O)(=O)c3ccccc3)n2n1
→ 99	92	77	/
- CCc1ccc(Nc2c3c(nc4ccccc24)CCC3)cc1
→ 105	6.7*	-0.7*	/
- Cc1ccc(CCNC(=O)C(CC(C)C)NS(=O)(=O)c2ccc3c(c2)oc(=O)n3C)cc1 (configuration not stated)
→ 107	118	94	4
- COC(=O)c1c(C)nc(C)c(C(=O)OC)c1-c1csc(S(=O)(=O)/N=C/N(C)C)c1
→ 112	87	95	-11
- Cc1cc2nc(NC3=NC(O)C=C(CSc4nc5ccccc5[nH]4)N3)nc(C)c2cc1C (configuration not stated)
→ 105	119	83	/
- CCCN(C(=O)c1cn(C)c(=O)c2ccccc12)c1ccccc1C
→ 103	103	101	12
- CN(Cc1ccccc1)C(=O)CNc1ccc(Br)cc1
→ /	100	94	-10
- Cc1ccccc1Cn1c(CN2CCC(C(=O)NCc3cccnc3)CC2)cc2ccccc21
→ 102	146	87	/
- O=C(CSc1nnc2c(Cl)cc(C(F)(F)F)cn12)NCC(F)(F)F
→ /	77	94	-36
- O=C(NCCc1ccccc1)c1cc2ccccc2nc1Cl
→ /	97	101	20
- O=C1CCCC2=C1C(c1ccc(-c3ccccc3)cc1)C1=C(CCCC1=O)O2
→ 106	/	/	-12
- CCC(C(=O)Nc1cc(C)ccc1C)n1nc(C)n2c(cc3cc(C)ccc32)c1=O (configuration not stated)
→ 104	105	86	0

# No enrichment for hits; 0.83% or so of the library scored in one or more.
